CBX7 AlphaScr: inhibitors of human CBX7 binding to H3K27me3 peptide. 1.1% of 66,000 active. AID 1224903. normalised signal (fraction of DMSO) (no concentration beside the values). AlphaScreen His6-CBX7 / biotin-H3K27me3 peptide binding; stronger effect = lower value; in the data active = normalised signal below about 0.5;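 note: 100 nL library stock added to about 20 µL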
Target sequence (O95931 whole entry, looked up): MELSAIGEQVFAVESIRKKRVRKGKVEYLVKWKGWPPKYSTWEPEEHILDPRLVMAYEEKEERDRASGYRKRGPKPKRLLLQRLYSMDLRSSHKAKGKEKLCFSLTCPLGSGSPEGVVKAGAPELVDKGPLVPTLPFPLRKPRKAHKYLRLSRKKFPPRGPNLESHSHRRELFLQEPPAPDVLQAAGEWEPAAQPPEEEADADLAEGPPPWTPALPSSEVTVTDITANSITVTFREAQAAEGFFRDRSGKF
CBX7 AlphaScr z-score: second read-out of CBX7 AlphaScr, no call of its own (marks repeat the call); z-score; measured here: z-score of CBX7 signal; some inactives read as strong as hits; reference of the scale not given here;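 same signal on another scale; lower means less binding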
An asterisk follows results filed as active.

SMILES	CBX7 AlphaScr	CBX7 AlphaScr z-score
O=c1[nH]c2ccccc2nc1Cc1cc(Br)ccc1F	0.982	-0.535
CC(C)C(=O)NC(c1cccs1)c1cc(Cl)c2cccnc2c1O (configuration not stated)	0.636	-1.28
CC(C)CCN1CC(C(=O)N2CCN(c3ccc(F)cc3)CC2)CC1=O (configuration not stated)	0.987	-0.359
COc1ccccc1NC(=O)C(Cc1ccccc1)NS(=O)(=O)c1ccc2c(c1)CCC(=O)N2 (configuration not stated)	0.917	-1.56
CCc1ccc(NS(=O)(=O)c2ccc3c(c2)CCN3C(C)=O)cc1	0.968	-1.04
CCN1CCN(CCCNC(=O)Cn2nc(Cc3ccncc3)c3ccccc3c2=O)CC1	0.978	-0.495
CCOC(=O)N1CCC(Nc2c(NCCN3CCCC3)c(=O)c2=O)CC1	0.986	-0.172
CCOc1cccc(C(=O)N(Cc2ccc(Cl)cc2)C2CCS(=O)(=O)C2)c1 (configuration not stated)	0.99	-0.126
CCc1ccc(NC(=O)CN2C(=O)CC(c3ccccc3)Sc3ccccc32)cc1 (configuration not stated)	0.998	-0.0342
Cc1cccc(C2(c3cccc(C)c3)CC2C(=O)NCc2cccnc2)c1 (configuration not stated)	0.891	-1.73
COc1cccc(OCC(O)CN2CCN(c3ccccn3)CC2)c1 (configuration not stated)	0.961	-0.608
Cc1ccc(OCC(=O)Nc2ccc(N3CCOCC3)cc2)cc1	1.12	1.23
Cc1cccc2c1-c1sc(C(=O)NCCN3CCOCC3)cc1CO2	1.21	4.66
Cc1ccc(-n2c(CCC(=O)O)ccc2-c2cccs2)cc1C	1	0.116
COc1ccccc1-c1c(C)nn2c(NCCN3CCCC3)cc(C)nc12	1.1	0.575
CCOC(=O)C1CCCN(c2c(NC(c3ccccc3)c3ccccc3)c(=O)c2=O)C1 (configuration not stated)	0.938	-1.41
COc1ccc(NC(=O)C2c3ccccc3C(=O)N3CCc4ccccc4C23)cc1Cl (configuration not stated)	1.01	0.154
O=c1[nH]c2ccc(S(=O)(=O)Nc3cccc(F)c3)cc2[nH]c1=O	0.991	-0.4
COc1ccc2nc(NC(=O)CSc3nc4ccccc4o3)sc2c1	0.9	-1.29
Cc1ccc(CC(C)CC(=O)Nc2cc(C)ccc2C)cc1 (configuration not stated)	1.08	1.94
CCCN1Cc2cccc(C(=O)Nc3cc(OC)ccc3OC)c2C1=O	0.992	-0.00829
COC(=O)CSc1nnc(COc2cccc3cccnc23)n1-c1ccccc1	1.13	2.86
CCOC(=O)C1CCN(c2c(NCc3cccc(OC)c3)c(=O)c2=O)CC1	1.1	0.974
O=C(O)c1cc2cccc(S(=O)(=O)N3CCOCC3)c2cc1O	0.909	-0.984
Cc1ccc(C2(c3ccc(C)cc3)CC2C(=O)Nc2ccc(Cl)c(Cl)c2)cc1 (configuration not stated)	1.32	3.03
Cc1ccc(-c2noc(CCC(=O)NCCN3CCOCC3)n2)cc1	1.1	0.141
COCCCNC(=O)c1cccc(NC2=NC3CS(=O)(=O)CC3S2)c1 (configuration not stated)	1.12	1.3
CCN(c1cccc(C)c1)c1ncnc2c1cnn2-c1ccc(Cl)cc1	1.1	0.347
COc1ccccc1-c1cc(C(=O)N2CCC(C)CC2)no1	0.963	-0.418
CCc1cccc(C)c1-n1nnnc1C(C)(C)Nc1ccccc1	0.977	-1.11

Ordered by number of heavy atoms (lowest first): part of the list above
SMILES	CBX7 AlphaScr	CBX7 AlphaScr z-score
CCc1cccc(C)c1-n1nnnc1C(C)(C)Nc1ccccc1	0.977	-1.11
COCCCNC(=O)c1cccc(NC2=NC3CS(=O)(=O)CC3S2)c1 (configuration not stated)	1.12	1.3
Cc1ccc(C2(c3ccc(C)cc3)CC2C(=O)Nc2ccc(Cl)c(Cl)c2)cc1 (configuration not stated)	1.32	3.03

The main list resumes, repeating the two entries before the break.
SMILES	CBX7 AlphaScr	CBX7 AlphaScr z-score
COc1ccccc1-c1cc(C(=O)N2CCC(C)CC2)no1	0.963	-0.418
CCc1cccc(C)c1-n1nnnc1C(C)(C)Nc1ccccc1	0.977	-1.11
CC(=O)N1CCc2cc(S(=O)(=O)NC(CC(C)C)C(=O)NCc3ccc(F)cc3)ccc21 (configuration not stated)	0.997	-0.0605
O=C(CC(c1ccccc1)c1ccccc1)NCC1OCCc2ccccc21 (configuration not stated)	0.988	-0.335
O=S(=O)(CCc1nc2ccccc2[nH]1)c1ccc(Cl)c(Cl)c1	1.03	0.971
CC(C)N1C(=O)CCC1C(=O)NCCc1ccc(Cl)cc1 (configuration not stated)	1.09	1.7
CCOC(=O)N1CCc2c(sc(NCc3cccc(OC)c3OC)c2C(=O)Nc2ccccc2OCC)C1	0.89	-2.94
CC(C)NC(=O)Cn1nc(-c2ccccc2)ccc1=O	1.03	0.983
COc1cc2[nH]c(=O)n(Cc3ccc(C(=O)NCCN(C)C)cc3)c(=O)c2cc1OC	1.04	0.957
Cc1ccc2c(c1)C(c1ccc(F)cc1)N(C(=O)CCCc1ccccc1)CC(=O)N2 (configuration not stated)	1.02	0.209
CCOc1ccc(-c2cc(CCCC(=O)Nc3cccc(C(F)(F)F)c3)no2)cc1	1.04	0.922
COCCCNC(=O)CS(=O)(=O)Cc1nc(-c2cccc(Cl)c2)oc1C	0.99	-0.497
COc1cccc(OC)c1OCCCc1c(C)n[nH]c1C	0.774	-3.25
O=C(CCSc1ccccc1)Nc1nc(-c2cccnc2)cs1	0.99	-0.246
CCc1ccc2c(c1)c(=O)c(S(=O)(=O)c1ccccc1)cn2CC(=O)Nc1ccc(F)c(Cl)c1	0.86	-4.56
COc1ccc(-n2c(Cc3cc(=O)[nH]c(=O)[nH]3)nnc2SCC(=O)Nc2ccc(Cl)cc2)cc1	0.819	-2.77
CCN1CCN(c2nc(-c3ccccc3)nc3ccccc23)CC1	1.2	0.7
CC(=O)N1c2ccc(S(=O)(=O)N3CC(=O)N(CCc4ccccc4)C(=O)C3)cc2CC1C (configuration not stated)	1.02	0.574
CCn1c(C(=O)N2CCC(C(=O)NCCCN3CCc4ccccc4C3)CC2)cc2sccc21	1	9.23e-05
Cc1ccc(-c2nnc(Nc3cccc(Cl)c3)c3ccccc23)cc1S(=O)(=O)NCC1CCCO1 (configuration not stated)	0.875	-1.41
CCOC(=O)c1[nH]cnc1C(=O)Nc1ccccc1	1.04	1.36
CCC(Oc1ccccc1F)C(=O)Nc1c(C(=O)c2ccc(Cl)cc2)oc2ccccc12 (configuration not stated)	1.12	0.415
Oc1ccc(Nc2nc(-c3ccc(Cl)cc3)cs2)cc1	0.44*	-4*
CCc1ccc(NC(=O)CN(C)S(=O)(=O)c2ccc3c(c2)n(C)c(=O)c(=O)n3C)cc1	1.01	0.0104
O=C(O)c1c[nH]c2ccc(S(=O)(=O)NCc3ccccn3)cc2c1=O	0.0209*	-13.1*
Cc1cc(N2CCOCC2)nc2ccc(NC(=O)c3cccs3)cc12	0.899	-0.682
CC1CCc2oc3ccc(NS(=O)(=O)c4ccc(Cl)cc4)cc3c2C1 (configuration not stated)	0.903	-1.22
COc1ccc(NC(=O)CSc2nc(-c3ccc(OC)cc3)[nH]c2-c2ccc(F)cc2)cc1	0.96	-1.89
Cc1noc(/C=C/c2cccs2)c1S(=O)(=O)N1CCC(C(=O)NC2CCC(C)CC2)CC1 (configuration not stated)	0.945	-0.115
CCN(CCNS(=O)(=O)c1ccc2c(c1)CCC(=O)N2)c1ccccc1	1.21	2.66
O=C(NCc1ccc(Cl)cc1)c1ccc(NC2=NC3CS(=O)(=O)CC3S2)cc1 (configuration not stated)	0.62	-2.89
CCOC(=O)c1ccccc1NC(=O)c1ccc2c(=O)n3c(nc2c1)CCCCC3	1.05	0.0686
Cc1cc(C)n2c(Nc3ccccc3)c(-c3ccsc3)nc2n1	0.954	-0.545
Cc1cc(=O)n2nc(N3CCC(C(=O)NCCN4CCCCCC4)CC3)sc2n1	1.49	4.59
Cc1ccc(NC(=O)CC2Nc3cc(C)c(C)cc3NC2=O)cc1C (configuration not stated)	0.996	-0.16
Cc1ccc([N+](=O)[O-])cc1-c1[nH]c(-c2ccccc2F)nc1-c1ccccc1	0.473*	-0.525*
Cc1cccc(-c2nc(Nc3ccc(Br)cc3C)c3ccccc3n2)c1	1.1	1.18
Cc1oc(-c2ccccc2F)nc1CS(=O)(=O)CC(=O)N1CCN(Cc2ccccc2)CC1	0.924	-1.99
CCOc1ccc(CN2C(=O)CCC2(C)C(=O)NCCc2ccc(OC)c(OC)c2)cc1OC (configuration not stated)	1.23	2.96
COc1ccc(C)cc1NS(=O)(=O)c1cnc[nH]1	0.89	-1.42
O=C(Nc1ccc2c(c1)OCCO2)C(Cc1ccccc1)NS(=O)(=O)c1cccs1 (configuration not stated)	0.996	-0.0597
CN1C(=O)C(O)(CC(=O)c2ccccc2)c2cc(Br)ccc21 (configuration not stated)	0.923	-0.737
COc1ccc(Nc2nc(N3CCCC3)nc3ccccc23)c(OC)c1	1.13	1.68
COc1ccc(NC(=O)C2CC(=O)N(c3ccccc3)C2)cc1 (configuration not stated)	0.98	-0.549
O=C(c1ccccc1)N1CCN(c2nc(-c3ccccc3)c3cc(Br)ccc3n2)CC1	1.28	1.1
CCN(CC)CCCNC(=O)CCN1C(=O)COc2ccccc21	1.06	3.17
CCc1ccccc1-n1cnc2cc(C(=O)NCc3ccccc3OC)ccc21	0.955	-2
O=C(CCc1nc2ccccc2[nH]1)Nc1ccc2c(c1)OCCO2	1.06	1.99
CC(=O)Nc1nnc(SCc2ccccc2Cl)s1	1.09	0.782
c1ccc2c(NC3CCCCCC3)ncnc2c1	1.08	2.29
Cc1cccc(NC(=O)CSc2nnc(C(O)c3ccccc3)n2-c2ccccc2)c1C (configuration not stated)	0.951	-0.616
CCOc1ccc(C(=O)N2CC(=O)Nc3ccc(C)cc3C2c2ccc(F)cc2)cc1 (configuration not stated)	0.959	-0.567
Cc1ccc(C(C(=O)NC2CCCC2)N2CCC(Cc3ccccc3)CC2)cc1 (configuration not stated)	1.01	0.37
CCC1CCCCN1S(=O)(=O)c1ccc2c(c1)CCN2C(=O)C1CCC1 (configuration not stated)	1.06	1.93
Cc1cccc(OCC(O)Cn2c(=N)n(Cc3ccccc3)c3ccccc32)c1 (configuration not stated)	0.741	-3.75
Cc1ccc(NC(=O)Cn2cnc3sc4c(c3c2=O)CCCC4)c(Br)c1	0.955	-1.21
Cc1ccc(-c2noc(CCC(=O)NCc3ccc(F)cc3Cl)n2)cc1	1.14	2.08
Cc1ccc2cc(CCNC(=O)c3cccc(Cl)c3)c(=O)[nH]c2c1	0.945	-0.708
O=C1c2cccnc2C(=O)N1c1cccc(-c2nc3ccccc3o2)c1	0.884	-1.84
O=C(Nc1ccc(F)cc1F)C1CCCN(c2nnc(-n3cccc3)s2)C1 (configuration not stated)	0.991	-0.3
COCc1cc(C)nc(SCC(=O)Nc2cccc(C(F)(F)F)c2)c1C#N	1.13	1.27
CCn1cc(C(=O)NCC(=O)OC)c2cc(OC)c(OC)cc2c1=O	0.975	-0.357
Continuation:
SMILES	CBX7 AlphaScr	CBX7 AlphaScr z-score
Cc1ccc2[nH]cc(S(=O)(=O)c3ccccc3)c(=O)c2c1	1.07	0.306
O=C(CSc1nnc(CNC(=O)c2ccccc2F)o1)Nc1cccc(Cl)c1	0.81	-3.1
CC(=O)Nc1ccccc1-c1nc2ccc(C(=O)N3CCCCC3)cc2[nH]c1=O	0.994	-0.122
Cc1nn(Cc2ccccc2)c(C)c1NC(=O)c1cc(-c2ccc(Br)cc2)on1	1.25	1.48
O=C(Cn1ccc2ccccc2c1=O)NCC(=O)N1CCCCCC1	1.29	2.48
COc1ccccc1C(=O)Nc1ccc2oc(-c3ccc(C)cc3)nc2c1	1.23	1.99
COc1cccc(Cc2nc3cc(C)c(C)cc3[nH]c2=O)c1	1.03	0.684
O=C(O)c1ccc(NCc2ccccc2OCc2ccc(F)cc2)cc1	1.06	1.96
Cc1ccccc1C1CC(c2ccc(Br)cc2)Nc2ncnn21 (configuration not stated)	0.992	-0.267
Cc1ccc(CNC(=O)CN2C(=O)COc3ccc(Cl)cc32)cc1	1.37	0.747
CCOc1ccc(-n2nc(C(=O)Nc3ccc(F)cc3)c3ccccc3c2=O)cc1	1.03	0.93
COc1ccccc1CNC(=O)C1CCN(Cc2nc(-c3cccc(Br)c3)oc2C)CC1	0.956	-0.895
CCCCCn1c(CCNC(=O)c2ccc(F)cc2)nc2ccccc21	0.961	-1.16
CC(CCc1ccccc1)NC(=O)Cn1ncc2c1-c1ccccc1OC2 (configuration not stated)	1.01	0.251
Cc1cc(Nc2cc(Cl)cc(Cl)c2)n2nc(C)nc2n1	1.05	1.09

Six of the entries above in order of the CBX7 AlphaScr z-score value, descending.
Compound | CBX7 AlphaScr z-score
O=C(Cn1ccc2ccccc2c1=O)NCC(=O)N1CCCCCC1 | 2.48
Cc1ccc(CNC(=O)CN2C(=O)COc3ccc(Cl)cc32)cc1 | 0.747
Cc1ccc2[nH]cc(S(=O)(=O)c3ccccc3)c(=O)c2c1 | 0.306
COc1ccccc1CNC(=O)C1CCN(Cc2nc(-c3cccc(Br)c3)oc2C)CC1 | -0.895
CCCCCn1c(CCNC(=O)c2ccc(F)cc2)nc2ccccc21 | -1.16
O=C(CSc1nnc(CNC(=O)c2ccccc2F)o1)Nc1cccc(Cl)c1 | -3.1

Compound profiles, as listed above. Screens in order: CBX7 AlphaScr | CBX7 AlphaScr z-score
`O=C(Cn1ccc2ccccc2c1=O)NCC(=O)N1CCCCCC1` across the screens: 1.29 | 2.48
`O=C(CSc1nnc(CNC(=O)c2ccccc2F)o1)Nc1cccc(Cl)c1` across the screens: 0.81 | -3.1

Only part of the results is shown. The share of hits here may be higher or lower than overall.
